From PubChem
PMP22 txn: modulates PMP22 transcription in S16 Schwann cells; S16 Pmp22-F2sN Schwann cells (luciferase reporters placed in the Pmp22 gene), FLuc/NLuc coincidence luminescence, 24 h; Potency, µM (titrated, usually from 57.5 µM), inactives show top-dose activity change, negative = inhibition, hits mostly inhibitors; 43,000 tested, 2% active; active = clear falling dose curves in both reporters; inconclusive = both reporters move, but less clearly or upward; inactive = either reporter flat; the % is the NLuc reporter signal; note: % is set by controls: 0 for no effect and ±100 for the full control effect; some results filed as inactive show a strong effect at the top dose
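Luminescent read-out of sequential FLuc and NLuc signals from a reporter embedded in the Pmp22 3' UTR of S16 Schwann cells, taken after 24 h compound exposure at 37C; compounds reducing both signals score as inhibitors of expression.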
HTT promoter inh: inhibits huntingtin promoter activity. HEK293 HTT promoter firefly luciferase reporter (activity 0% = vehicle and -100% = no light), 24 h. Potency, µM (series often up to 57.5 µM), without a hit: at the top dose activity change, negative = inhibition, most hits filed as inhibitors. 48,000 tested, 0.93% active; active = well fitted inhibition curve with a large enough effect; inconclusive = small, poorly fitted or top-dose-only effect; inactive = no such curve, though single readings can be large or run the other way; note: nearly all actives have a fitted effect of over 50% in size
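Firefly luciferase signal from promoter-reporter HEK293 cells was scaled between vehicle (0%) and zero RLU (-100%). Compounds were tested at final concentrations of up to 57.5 uM over 24 h at 37 degrees C. PTC124 at 50 uM final served as control inhibitor.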
* marks the source's active call; other numbers are inactive results; ? = inconclusive; . = no result given; & = joins results of further samples; [ ] = remark or other dose. Potency is the fitted concentration of half-maximal effect.

SMILES	PMP22 txn	HTT promoter inh
Cc1cc(C)cc(-n2c(SCC(=O)N3CCCC3)nc3c([nH]c4ccccc43)c2=O)c1	15.2%	-9.7%
O=C(NCCc1cccs1)c1ccc(Cn2c(SCc3cccc(F)c3)nc3cccnc32)cc1	?	-13.5%
CCc1ccc(NC(=O)C2=C(C)C(=O)OC23CCCCC3)cc1	?	-13.6%
O=[N+]([O-])c1cc(-c2nc(-c3ccccc3)no2)ccc1N1CCN(c2ccccc2)CC1	-10.6%	-7.6%
O=C(Cn1c(=O)c2cccn2c2ccc(F)cc21)N1CCN(c2ccccc2F)CC1	-16.8%	0.4%
COc1ccc(CNC(=O)CCc2cn(Cc3cc(C)ccc3C)c3ccccc23)cc1OC	-24.8%	?
COc1ccc(C2=Nc3ccccc3N(CC(=O)Nc3cccc(C(C)=O)c3)C(=O)C2)cc1	15.3%	18.2%
CCc1ccc(NC(=O)Cn2nc(SC)c(S(=O)(=O)c3ccc(OC)cc3)c2N)cc1	?	-18.9%
CCCC(=O)Oc1c(Sc2ccc(Cl)cc2)c(C)nn1-c1ccccc1	3.5%	?
CC(C)CNC(=O)C(=O)Nc1c2c(nn1-c1ccc(Cl)cc1)CSC2	?	-23.0%
COc1cccc(NC(=O)C2CC(=O)N(c3ccc(Br)cc3)C2)c1 (stereo unspecified)	-1.8%	-9.2%
Oc1c(C(c2cccc(Cl)c2)N2CCOCC2)sc2nc(-c3ccco3)nn12 (stereo unspecified)	1.2%	4.2%

Sorted by molar mass (descending): part of the list above
SMILES	PMP22 txn	HTT promoter inh
CCc1ccc(NC(=O)Cn2nc(SC)c(S(=O)(=O)c3ccc(OC)cc3)c2N)cc1	?	-18.9%
COc1ccc(CNC(=O)CCc2cn(Cc3cc(C)ccc3C)c3ccccc23)cc1OC	-24.8%	?
COc1cccc(NC(=O)C2CC(=O)N(c3ccc(Br)cc3)C2)c1 (stereo unspecified)	-1.8%	-9.2%
CCCC(=O)Oc1c(Sc2ccc(Cl)cc2)c(C)nn1-c1ccccc1	3.5%	?
CCc1ccc(NC(=O)C2=C(C)C(=O)OC23CCCCC3)cc1	?	-13.6%

(continued)
SMILES	PMP22 txn	HTT promoter inh
CC(C)(C)C(=O)NC1(C(F)(F)F)C(=O)Nc2c1c(=O)[nH]c(=O)n2-c1ccccc1 (stereo unspecified)	1.7%	-13.6%
COc1cc(Cl)ccc1OC(=O)c1cn(-c2ccccc2OC)c(=O)c2ccccc12	14.3%	-6.3%
CCCCCc1nn2cc(-c3ccccc3)nc2s1	-9.5%	23.3%
Cc1ccc(NC(=O)CCCc2nnc3n(C)c(=O)c4sccc4n23)cc1C	-3.3%	-18.3%
CC(CNC(=O)Cn1ccc2cc(S(=O)(=O)N3CCCCC3)ccc21)c1ccccc1 (stereo unspecified)	?	?
CCc1ccc(NC(=O)c2ccc(NS(=O)(=O)c3c(C)noc3C)cc2)cc1	17.1%	-21.9%
CN(C)CC1CCN(C2CCN(C(=O)c3cccc(-c4cc(O)c5ncccc5c4)c3)CC2)CC1	.	-27.1%
Cc1ccc(S(=O)(=O)c2nnn3c2nc(Nc2ccc(C(C)C)cc2)c2sccc23)cc1C	?	-14.2%
Cc1ccc(C(=O)Nc2cc(-c3cn4cccnc4n3)ccc2C)cc1C	?	0.5%
COc1ccccc1N1CCN(S(=O)(=O)CCNC(=O)c2cc(=O)c3ccccc3o2)CC1	?	-29.9%
CCCNC(=O)Nc1ccc(Oc2ncnc3cc(OC)c(OC)cc23)cc1Cl	.	-8.0%
CCOc1ccc(OCC)c(S(=O)(=O)N2CCN(c3cccc(C)c3C)CC2)c1	?	-2.2%
C#C[C@]1(OC(C)=O)CC[C@H]2[C@@H]3CCC4=C[C@@H](OC(C)=O)CC[C@@H]4[C@H]3CC[C@@]21C	.	-24.8%
CCc1ccc2c(c1)NC(c1ccc(F)cc1)=NC(c1ccncc1)=N2	?	-9.3%
Cc1cc(Cl)ccc1NC(=O)c1cc(S(=O)(=O)N2CCOCC2)cn1C	-3.3%	-30.8%
Cn1c(=O)n(-c2ccc3c(c2)OCO3)c2nc(-c3ccc(Cl)cc3)nc(C(N)=O)c21	?	-3.6%
Cc1cc(C)c(/C=C/c2onc(C)c2S(=O)(=O)N2CCC(C(=O)Nc3ccc(Cl)c(C(F)(F)F)c3)CC2)c(C)c1	?	-22.1%
CSc1nn(Cc2ccc(Cl)cc2)c(N(C(C)=O)C(C)=O)c1S(=O)(=O)c1ccccc1	?	?
COc1ccc(NC(=O)Cn2cnc3sc(C)c(S(=O)(=O)N4CCN(c5ccccc5OC)CC4)c3c2=O)cc1OC	26.3%	-5.4%
CCOc1ccccc1N(C)C(=O)c1c2c(nc3ccccc13)C(=O)N(C1CCCCC1)C2	-19.7%	?
CC(=O)Nc1ccc(NC(=O)c2cc(=O)c3ccccc3o2)cc1	33.1%	1.6%
CCc1ccc(-c2cc(C)no2)cc1S(=O)(=O)NCc1ccco1	-19.4%	?
CCOc1ccc(/C=C/c2nc(C#N)c(N(C)C)o2)cc1	?	57.4%[activator]
O=C(Cc1ccc(Cl)cc1)Nc1ccc2oc(-c3ccc(F)cc3)nc2c1	-23.1%	0.1%
O=C(CSc1ncc2c(n1)-c1ccccc1N(Cc1ccc(Cl)cc1)S2(=O)=O)c1ccccc1	-10.5%	-15.6%
Cn1c(=O)[nH]c2cc(-c3noc(-c4ccc(C#N)cc4)n3)ccc21	1.8%	-2.7%
COc1cccc(-c2nc(CS(=O)CC(=O)N3CCN(c4cccc(C(F)(F)F)c4)CC3)c(C)o2)c1 (stereo unspecified)	?	?
COc1ccccc1CNc1ncnc2onc(-c3ccc(Cl)cc3)c12	-34.8%	?
COc1cc(NC(=O)CCCOc2cc(=O)n(C)c3ccccc23)cc(OC)c1OC	-4.3%	-27.9%[11.5 µM]
CCCCc1nn2c(=O)cc(COC(=O)c3cccc(Cl)c3)nc2s1	6.7%	-25.2%
CCOc1ccc(CNS(=O)(=O)c2cc3c(cc2C)NC(=O)CO3)cc1	-3.6%	-5.1%
CCCCC12CN3CC(C)(CN(C1)C3c1cc(Br)ccc1O)C2=O (stereo unspecified)	-3.6%	?
CCOC(=O)N1CCc2c(sc(NCc3cccc(F)c3)c2C(=O)Nc2ccc(OC)cc2)C1	?	?
CCc1cccc(C)c1NC(=O)CN1C(=O)c2ccccc2Sc2ncccc21	1.1%	-15.7%
COc1ccccc1N1CCN(S(=O)(=O)CCNC(=O)C(c2ccccc2)c2ccccc2)CC1	-16.4%	?
COc1ccc(NC(=O)CSC2=Nc3ccccc3C3=NC(CC(=O)NCc4ccccc4OC)C(=O)N23)cc1Cl (stereo unspecified)	3.0%	-22.3%
O=C1COc2cc(S(=O)(=O)NCc3ccco3)c(Cl)cc2N1	-11.4%	-1.8%
N#C/C(=C\c1ccc(-c2ccccc2C(=O)O)o1)c1nc2ccccc2[nH]1	?	-36.2%
O=C(c1ccc2c(c1)N(Cc1ccc(Cl)cc1)C(=O)c1ccccc1S2(=O)=O)N1CCc2ccccc21	-20.1%	-23.0%
COc1ccc(N2CCN(c3ncnc4c3nc3n4CCCCC3)CC2)cc1	?	?
CC1CCCCN1C(=O)CSc1nc2ccccc2nc1Cc1ccccc1 (stereo unspecified)	?	?
COC(=O)c1ccccc1NC(=O)[C@H]1O[C@@H]2OC(C)(C)O[C@@H]2[C@H]2OC(C)(C)O[C@H]21	-6.2%	-9.1%
CCC(=O)Nc1nnc(S(=O)(=O)N2CCc3ccccc32)s1	54.7%	-18.8%
O=C(CSc1n[nH]c(-c2ccccc2Cl)n1)NCc1ccc(F)cc1	-3.5%	-12.4%
COc1ccc(-c2nnc(SCC(=O)Nc3cccc(C(F)(F)F)c3)s2)cc1	-1.6%	-13.7%
Cc1ccc(C)c(N2CCN(CCCNC(=O)c3cnn(-c4ccccc4)c3C3CCN(C(=O)OC(C)(C)C)CC3)CC2)c1	?	?
COc1cc(NC(=O)Cn2cnc3c2c(=O)n(C)c(=O)n3C)c(OC)cc1Cl	-11.5%	-5.6%
COc1ccccc1CNC(=O)COc1cc(=O)n(C)c2ccccc12	-10.3%	17.4%

Profiles, looked up by structure. Values in the order: PMP22 txn | HTT promoter inh
Listed for COc1ccccc1CNC(=O)COc1cc(=O)n(C)c2ccccc12 : -10.3% | 17.4%
Listed for O=C1COc2cc(S(=O)(=O)NCc3ccco3)c(Cl)cc2N1 : -11.4% | -1.8%

Following part.
SMILES	PMP22 txn	HTT promoter inh
CCc1ccc2nc(N3CCC(C(=O)O)CC3)sc2c1	23.7%	10µM*
O=C(Cn1ncc2c3ccccc3n(Cc3cccc(Cl)c3)c2c1=O)N1CCCCC1	-19.7%	?
COC(=O)c1ccc(NC(=O)CCn2cnnn2)c(C)c1	6.1%	-1.7%
Cc1ccc(NC(=O)c2oc3ccc(S(=O)(=O)N4CCOCC4)cc3c2C)c(C)c1	-28.9%	-10.0%
CCC(=O)N1c2ccc(S(=O)(=O)NCCc3ccccc3)cc2CC1C (stereo unspecified)	?	-29.4%
Cc1cc(NC(=O)CN2C(=O)C(C)(C)c3ccccc32)ccc1Br	-6.9%	?
COc1cccc(-n2c(SCc3ccc(F)cc3)nc3c([nH]c4ccccc43)c2=O)c1	?	-29.0%
CC(=O)c1cccc(S(=O)(=O)N2CCN(c3ccccc3F)CC2)c1	-29.8%	?
O=C(CSc1nc(-c2ccc(F)cc2)cc(C(F)(F)F)n1)NCCc1ccccc1	-9.2%	-30.4%
Cn1nnc2c(NCc3ccccc3)ncnc21	-14.7%	-1.4%
CCOC(=O)c1sc2ccccc2c1S(=O)(=O)NCc1ccccc1OC	?	0.0%
CCC(=O)N1CCc2cc(Br)cc(S(=O)(=O)N3CCCC(C(=O)N(C)c4ccc(Br)cc4)C3)c21 (stereo unspecified)	?	-37.3%
COCCCn1c(=N)c(C(=O)NCc2ccco2)cc2c(=O)n3cccc(C)c3nc21	14.1µM*	0.4%
Cc1cc(C)cc(NC(=O)CCCn2c(=O)c3cccn3c3ccccc32)c1	-42.4%	-8.0%
Cc1ccc(NC(=O)CSc2nnc(C)n3c2cc2sccc23)c(C)c1	-21.9%	9.2%
Cc1ccc(CN2CCN(C3CCN(C(=O)OC(C)(C)C)CC3)C(=O)C2=O)cc1	2.6%	-13.1%
CCCCn1nc(NC(=O)c2cccc(Cl)c2)c2cc3ccccc3nc21	1.3%	?
Cc1ccc2c(c1)sc1nc(-c3cc4ccccc4oc3=O)cn12	-12.6%	?
O=C1c2[nH]nc(-c3ccccc3O)c2C(c2cccc(O)c2)N1Cc1ccncc1 (stereo unspecified)	-6.7%	-9.0%
CCN1CCCC1=O	.	1.8%
CCOC(=O)c1c(C)c(-c2ccccc2)n(CC(=O)NCc2cccc(OC)c2)c1C	?	-4.7%
CCOC(=O)c1cc(OC(=O)c2cccc(F)c2)n(-c2ccccc2)n1	0.9%	-15.0%
COc1ccnc(CS(=O)c2nc3ccc(OC(F)F)cc3[nH]2)c1OC (stereo unspecified)	.	-29.1%&15.1%
CC1=C(C(=O)Nc2ccc(C)cc2C)C(c2ccccc2F)n2nc(SCC(=O)c3ccc(C)cc3)nc2N1 (stereo unspecified)	-28.8%	-13.5%
Cc1ccc2c(c1)N(S(=O)(=O)c1ccc3c(c1)NC(=O)CC(=O)N3)CCO2	-7.9%	2.5%
Cc1cc(S(=O)(=O)C(CNC(=O)COc2ccccc2)c2cccs2)ccc1F (stereo unspecified)	-1.0%	-6.7%
Cc1cccc(Nc2cc(C)nc3nc(Cc4ccc(Cl)cc4)nn23)c1	-25.5%	-21.2%
O=C(CSc1nc(=O)n(Cc2ccco2)c2c1CCC2)NCc1ccc(F)cc1	37.3%	-0.6%
CCn1cc(S(=O)(=O)c2cccc(C)c2)c(=O)c2cc(F)c(N3CCN(c4ccccc4)CC3)cc21	27.1%	-26.6%
COc1cccc(OC)c1C(=O)Nc1cccc(-c2cn3ccsc3n2)c1	-13.8%	0.2%
COc1cccc(NC(=O)Cn2c(=O)n(Cc3ccco3)c(=O)c3cc(OC)c(OC)cc32)c1	?	-13.6%
COc1ccc(NC(=O)CN2C(=O)CSc3ccc(S(=O)(=O)N(C)C)cc32)cc1Cl	-4.9%	-30.6%
CC(=O)Nc1ccc(C(=O)Nc2ccc3c(c2)N(C2CCCC2)C(=O)c2ccccc2S3)cc1	?	?
CCOc1ccccc1NC(=O)CSc1c(C)cnc2c1c(=O)n(C)c(=O)n2C	-6.4%	-17.8%
CCOC(=O)c1noc2nc(C)n(CC(=O)Nc3ccccc3F)c(=O)c12	-22.3%	-8.8%
Cc1ccccc1-n1c(/C=C/c2c(C)n(C)c3ccccc23)nc2ccccc2c1=O	?	-10.6%
COc1cccc(CNC(=O)C(=O)NCC(c2ccco2)S(=O)(=O)c2ccccc2)c1 (stereo unspecified)	?	?
COc1cccc(CN2C(=O)C3(SCC(=O)N3c3ccc(F)cc3)c3ccccc32)c1 (stereo unspecified)	?	-40.3%
COc1ccc(Br)cc1C1Sc2ccccc2NC2=C1C(=O)c1ccccc12 (stereo unspecified)	-21.7%	?
Cc1sc2ncn(CC(=O)N(C)c3cccc(C(F)(F)F)c3)c(=O)c2c1S(=O)(=O)N1CCN(c2ncccn2)CC1	9.3%	-14.6%
O=C(NCCc1nc2ccccc2n1Cc1ccccc1F)c1ccc(F)cc1	-4.4%	?
COc1ccc(N2CCN(C(=O)c3ccc(Nc4nc5ccccc5n5nnnc45)cc3)CC2)cc1	?	3.7%
